Compound activity from PubChem.
RanGTP-Impb inh: inhibitors of RanGTP-importin-beta interaction, primary screen, biochemical, FRET, CFP-Ran, YFP-importin-beta, homogeneous; inhibition, % (test concentration not listed); 1.1% of 300,000 active; Ran GTPase (GTP-bound) - importin-beta complex; cell-free CFP-Ran/YFP-importin-beta FRET ratio;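 active means most replicates above 15%; inconclusive means exactly half above 15%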;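 further: 0% = DMSO wells and 100% = Ran loaded with GDP instead of GTP; wells of about 40 µL received 100 nL stock; the first replicate is given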
AF4-AF9 inh: inhibitors of AF4 peptide binding to AF9, primary screen, biochemical, AlphaScreen, biotin-AF4 peptide, FLAG-AF9, single point; 0.47% of 350,000 active; AID 651704, 2012; inhibition, % at 10 µM;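 active means every replicate reaching a set inhibition limit, whatever the replicate mean, cut at about 25% in these data; inconclusive means mean inhibition reaches that limit but some replicates miss it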;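 further: 0% = plate neutral control median and 100% = total signal loss; the record names both 10 and 1 µM as test concentration; the first replicate is given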
Beta apoptosis: inhibitors of cytokine-induced beta cell apoptosis, primary screen, luminescence; protection from apoptosis, % (test concentration not listed); INS-1E cytokine-induced death, ATP luminescence, 48 h; percent of positive-control rescue, neutral wells zero; 0.8% of 300,000 active;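 active means all replicates at 75% or more, or half of them and the mean; inconclusive means half reach 75% but not the mean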;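 further: 0% = cytokine-treated negative control wells and 100% = positive control rescue; higher means more ATP so stronger rescue from cytokine killing; wells of about 40 µL received 100 nL stock; the first replicate is given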
FGF22 binding: binders of human FGF22 protein, primary screen, FGF22 synaptogenesis inhibitor project, biophysical, thermal shift, single point | 1.5% of 340,000 active | Fibroblast growth factor 22 (Homo sapiens), Q9HCT0 | calls only at 9.99 µM | recombinant FGF22 thermal shift, SYPRO orange fluorescence; percent of sucrose octasulfate shift, DMSO zero;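 active means melting point raised past a set limit in the mean and every replicate; inconclusive means no clear call; three in four hits are not shown here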
Target sequence (Q9HCT0 whole entry, looked up): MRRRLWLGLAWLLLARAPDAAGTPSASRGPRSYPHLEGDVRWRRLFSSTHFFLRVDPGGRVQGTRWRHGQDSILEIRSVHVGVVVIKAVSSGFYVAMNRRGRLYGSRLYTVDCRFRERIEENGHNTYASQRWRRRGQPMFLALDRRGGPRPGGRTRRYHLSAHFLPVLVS
rRNA inh HTS: reduced GFP signal of wild-type E. coli, primary screen, bacterial rRNA inhibitor project, GFP/RFP fluorescence, OD600, single point; 1.6% of 350,000 active; GFP signal change (wild-type ribosome), % (concentration not given with the values); E. coli WT GFP vs humanized-ribosome RFP mutants, 24 h; active compounds read low; DMSO median 0, no signal -100;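 active means significant combined selectivity score with lowered wild-type GFP, culture density cut under 30%, mutant RFP and density less affected; inactive means any of these conditions unmet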; further: one replicate is shown; some compounds called inactive have numbers as strong as hits
T cruzi inh: inhibitors of intracellular T. cruzi growth, primary screen, luminescence, NIH3T3 host cells; inhibition, % (test concentration not listed); T. cruzi beta-gal in NIH3T3, 90 h; AID 1885, 2009; 1.4% of 300,000 active;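 active means mean inhibition across valid replicates above about 55%, limit read from the data; inconclusive means mean below that limit but half or more replicates reach it; inactive means mean below it, under half of replicates reach it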;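 further: signal also drops with host cell toxicity which is not excluded here; 0% = plate median of DMSO wells and 100% = zero luminescence signal; higher percent means less beta-gal luminescence so fewer parasites; stock transfer was 50 nL into about 50 µL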
ALR inh: inhibitors of human ALR sulfhydryl oxidase, primary screen, biochemical, H2O2 detection, HRP-luminol luminescence, single point; purified ALR, DTT oxidation; FAD-linked sulfhydryl oxidase ALR (Homo sapiens), P55789; 3.8% of 290,000 active; AID 485317, 2010; inhibition, % (test concentration not listed);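 active means mean and each replicate at 75% or more; inconclusive means only one of the two met; inactive means neither met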;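 further: stock transfer was 7.5 nL into about 7.5 µL; 0% = neutral wells and 100% = wells with inactivated enzyme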
Target sequence (P55789 whole entry, looked up): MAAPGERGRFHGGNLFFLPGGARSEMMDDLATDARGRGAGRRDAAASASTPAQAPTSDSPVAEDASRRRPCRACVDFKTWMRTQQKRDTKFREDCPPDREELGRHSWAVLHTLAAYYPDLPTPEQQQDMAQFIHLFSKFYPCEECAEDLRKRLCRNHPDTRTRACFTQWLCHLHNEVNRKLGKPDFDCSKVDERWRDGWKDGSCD
Calb FLC: C. albicans growth inhibition with fluconazole, primary screen, CaCi-2 strain, Alamar Blue fluorescence. AID 1979, 2009. growth inhibition, % (concentration not given with the values). 0.57% of 300,000 active. C. albicans CaCi-2 (fluconazole-resistant clinical isolate) + fluconazole, 48 h;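 active means most replicates above 75%; inconclusive means exactly half above 75%; inactive means most below 75%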;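 further: all wells also contain fluconazole at 8 µg/ml as a sub-toxic cotreatment; 0% = median of DMSO wells and 100% = median of geldanamycin control wells; wells of about 8 µL received 7.5 nL stock; the first replicate is given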
rRNA inh HTS OD600: further read-out of rRNA inh HTS, marked with its call; OD600 change, %; measured here: OD600 growth;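 optical density of the mix in the first replicate; 0 = DMSO median and -100 = no signal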
rRNA inh HTS RFP: recorded beside rRNA inh HTS, whose call it bears; RFP signal change, %; measured here: RFP humanized mutant strains;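 first replicate; 0 = DMSO median and -100 = no signal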
Active calls of the source: *; i = inactive; ? = inconclusive; . = not tested or not shown; + = active, no number; & = joins results of further samples. Only part of the results is shown; the hit share may differ from the screen's.

structure | rRNA inh HTS | RanGTP-Impb inh | FGF22 binding | rRNA inh HTS OD600 | rRNA inh HTS RFP | Calb FLC | ALR inh | T cruzi inh | Beta apoptosis | AF4-AF9 inh
O=c1[nH]cnc2[nH]ncc12 | 10 | -1.5 | i | 16 | 1.0 | . | -8 | 28 | -2 | -3.7
CC(C)c1ccc(NC(=O)[C@H](NC(=O)[C@@H]2Cc3ccccc3CN2)c2ccccc2)cc1 | -17 | 0.1 | i | -19 | -5.6 | -10 | 3 | 2 | 4 | -0.3
Cn1c(=O)c2c(nc(N3CCCCC3)n2CCSc2nc3ccccc3s2)n(C)c1=O | . | 7.0 | . | . | . | 5 | 25 | 11 | 6 | .
C=CCNC(=O)c1cc(-c2ccncc2)nc2c(C)cc(C)cc12 | 2 | 1.9 | i | -3 | 1.2 | -9 | -4 | 13 | 0 | 0.1
COc1ccc(C(=O)Nc2ccc(Nc3ccccc3)cc2)cc1OC | 2 | 4.5 | i | 3 | -1.3 | 13 | 12 | -9 | 7 | -5.1
Cc1ccc(NC(=O)CSCC(=O)NC2(C)CCS(=O)(=O)C2)cc1 (stereo not drawn) | 0 | . | i | 10 | -0.8 | . | 99* | . | -4 | -6.9
COc1ccc(OC)c(NC(=O)COC(=O)CCCN=C2NS(=O)(=O)c3ccccc32)c1 | -9 | . | i | -2 | 1.6 | . | -24 | . | 0 | -3.0
COc1ccc(C2CCCN2C(=S)Nc2ccc(C)cc2Cl)cc1OC (stereo not drawn) | -32 | 0.3 | i | -41 | -20 | 10 | -4 | -11 | 1 | 1.2
CCC1(c2ccc(F)cc2)NC(=O)N(CC(=O)Nc2ccc(S(N)(=O)=O)cc2)C1=O (stereo not drawn) | 11 | 3.1 | i | 3 | 0.4 | -3 | -7 | 3 | -7 | 2.0
COc1ccccc1OCCNC(=O)c1cc(C2CC2)nc2c1cnn2C(C)C | 7 | . | i | 11 | -0.1 | . | -8 | . | -15 | ?

A different layout for part of the listing above.
Value order – rRNA inh HTS | RanGTP-Impb inh | FGF22 binding | rRNA inh HTS OD600 | rRNA inh HTS RFP | Calb FLC | ALR inh | T cruzi inh | Beta apoptosis | AF4-AF9 inh
> COc1ccccc1OCCNC(=O)c1cc(C2CC2)nc2c1cnn2C(C)C
 : 7 | . | i | 11 | -0.1 | . | -8 | . | -15 | ?
> C=CCNC(=O)c1cc(-c2ccncc2)nc2c(C)cc(C)cc12
 : 2 | 1.9 | i | -3 | 1.2 | -9 | -4 | 13 | 0 | 0.1
> Cn1c(=O)c2c(nc(N3CCCCC3)n2CCSc2nc3ccccc3s2)n(C)c1=O
 : . | 7.0 | . | . | . | 5 | 25 | 11 | 6 | .

New compounds follow:
structure | rRNA inh HTS | RanGTP-Impb inh | FGF22 binding | rRNA inh HTS OD600 | rRNA inh HTS RFP | Calb FLC | ALR inh | T cruzi inh | Beta apoptosis | AF4-AF9 inh
CSc1nsc(SCC(=O)Nc2ccccc2C(=O)O)n1 | 1 | -1.5 | + | -7 | 0.9 | 4 | 6 | -9 | -7 | 4.4
CCOc1ccc(-c2nnc(-c3cccs3)o2)cc1OCC | . | -4.1 | . | . | . | 0 | . | -6 | 0 | .
O=C(COC(=O)/C=C/c1ccc([N+](=O)[O-])cc1)NCc1ccco1 | -1 | 1.0 | i | -1 | 0.5 | -3 | 50 | -3 | -6 | -6.9
C[C@H](CO)N1C[C@H](C)[C@@H](CN(C)S(=O)(=O)c2ccccc2)Oc2c(NC(=O)Nc3ccc4c(c3)OCO4)cccc2C1=O | -1&-16 | . | i | -4&-14 | -4.2&-0.4 | . | . | . | -9 | 5.1&5.8
CCOC(=O)N1CC=C2C(C#N)=C(N)C(C#N)(C#N)[C@H](c3ccsc3)[C@H]2C1 | . | 9.5 | . | . | . | 11 | -3 | -9 | 3 | .
CSc1nc(-c2ccco2)nn1S(=O)(=O)c1ccc(C)cc1 | 5 | -1.2 | i | 2 | 3.9 | 6 | -32 | -2 | -2 | 0.6
CC1=CC2=NC(=O)/C(=C\c3cccn3CCOc3ccccc3C)C(=N)N2O1 | -14 | -1.1 | i | -16 | -1.5 | 13 | 9 | 8 | -1 | 6.4
COc1cccc(C2CC(c3cccc(C)c3)n3ncnc3N2)c1 (stereo not drawn) | 2 | ? | i | -9 | -0.7 | -5 | -18 | -4 | 5 | 1.5
CCOc1cc(/C=N/n2c(C)nnc2C)ccc1O | 10 | 0.6 | i | 0 | -7.9 | 5 | 94* | 0 | 2 | -3.3
O=C(Nc1ccccc1)OCCNC(=O)c1cccc(Cl)c1 | . | 7.8 | . | . | . | -6 | -4 | -32 | -7 | .

Fetched one by one from above:
structure | rRNA inh HTS | RanGTP-Impb inh | FGF22 binding | rRNA inh HTS OD600 | rRNA inh HTS RFP | Calb FLC | ALR inh | T cruzi inh | Beta apoptosis | AF4-AF9 inh
CSc1nc(-c2ccco2)nn1S(=O)(=O)c1ccc(C)cc1 | 5 | -1.2 | i | 2 | 3.9 | 6 | -32 | -2 | -2 | 0.6
COc1cccc(C2CC(c3cccc(C)c3)n3ncnc3N2)c1 (stereo not drawn) | 2 | ? | i | -9 | -0.7 | -5 | -18 | -4 | 5 | 1.5

(more compounds)
structure | rRNA inh HTS | RanGTP-Impb inh | FGF22 binding | rRNA inh HTS OD600 | rRNA inh HTS RFP | Calb FLC | ALR inh | T cruzi inh | Beta apoptosis | AF4-AF9 inh
O=C(c1ccco1)N1CCN(C(=O)c2cccc3c2C(=O)N(C2CCCCC2)C3)CC1 | -3 | 1.6 | i | 3 | 7.0 | -5 | 1 | 7 | -7 | -1.6
Cc1ccc(C(=O)N/C(=C\c2ccc(C)o2)C(=O)O)cc1 | 14 | 0.5 | i | 3 | -2.4 | 1 | 9 | -18 | -9 | -6.0
CC1CCCN(C(=O)COC(=O)c2cc(Br)ccc2O)C1 (stereo not drawn) | -3 | . | i | -8 | 1.9 | . | -8 | . | -1 | 1.3
CCOC(=O)CCn1cnc2ccc([N+](=O)[O-])cc2c1=O | 2 | -2.0 | i | -2 | -2.3 | -9 | -7 | -9 | -2 | -17
COc1ccc(/C=C2/SC(=O)N(CCC(=O)Nc3ccc(C)cc3)C2=O)cc1OC | 1 | -4.1 | i | 15 | -1.3 | -3 | -5 | 8 | 37 | -2.7
CCOc1cc(/C=N/NC(=O)CN2CCCCC2)ccc1OCc1cccc(Cl)c1 | . | 4.1 | . | . | . | 9 | -41 | 1 | -25 | .
O=C(Cc1ccc(F)cc1)N1CCOCC1 | 9 | 5.9 | i | 19 | -5.7 | 0 | . | -3 | -4 | -4.3
O=C(CSCc1ccc(F)cc1)Nc1ccc(N2CCOCC2)cc1N1CCOCC1 | 2 | . | i | 3 | -2.2 | . | . | . | 5 | 4.0

Record cards, from the list above. Order of values: rRNA inh HTS	RanGTP-Impb inh	FGF22 binding	rRNA inh HTS OD600	rRNA inh HTS RFP	Calb FLC	ALR inh	T cruzi inh	Beta apoptosis	AF4-AF9 inh
`O=C(Nc1ccccc1)OCCNC(=O)c1cccc(Cl)c1` reads .	7.8	.	.	.	-6	-4	-32	-7	.
`CCOc1ccc(-c2nnc(-c3cccs3)o2)cc1OCC` reads .	-4.1	.	.	.	0	.	-6	0	.
